# From PubChem BioAssay
# Beta2AR agonist: beta2AR agonists driving receptor internalization, primary screen, cell-based, FAP fluorogen, flow cytometry; Beta-2 adrenergic receptor (Homo sapiens), P07550; Am2.2-beta2AR cells; reference of the scale not given here; response, % (no concentration beside the values); 340,000 tested, 0.43% active;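 active = response above a set limit, near 3 SD of response in nonfluorescent compounds, cut at about 42% in these data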;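 note: stock transfer was 100 nL into about 11 µL; a reference agonist was the positive control; negative values mostly stem from fluorescent compounds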
# ALR inh: inhibitors of human ALR sulfhydryl oxidase, primary screen, biochemical, H2O2 detection, HRP-luminol luminescence, single point; purified ALR, DTT oxidation; FAD-linked sulfhydryl oxidase ALR (Homo sapiens), P55789; inhibition, % (concentration not given with the values); 290,000 tested, 3.8% active;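 active = mean and each replicate at 75% or more; inconclusive = only one of the two met; inactive = neither met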;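 note: stock transfer was 7.5 nL into about 7.5 µL; 0% = neutral wells and 100% = wells with inactivated enzyme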
# Target sequence (P55789 whole entry, looked up): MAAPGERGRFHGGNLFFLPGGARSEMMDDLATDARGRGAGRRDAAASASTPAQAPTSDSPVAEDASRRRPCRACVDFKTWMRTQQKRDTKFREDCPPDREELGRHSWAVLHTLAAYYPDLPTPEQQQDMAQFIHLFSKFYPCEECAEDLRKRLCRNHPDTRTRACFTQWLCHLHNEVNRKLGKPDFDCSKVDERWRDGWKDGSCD
# HNF4A DNA FP: change in binding of human HNF4A to DNA, primary screen, biochemical, fluorescence polarization, FITC-DNA; AID 1224865, 2016; activity change, % at 10 µM; 360,000 tested, 0.3% active; Hepatocyte nuclear factor 4-alpha (Homo sapiens), P41235; 1 h; in the data active = activity change above about 30%, passing the limit was not always enough;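 note: controls were the assay level and a saturating level of protein; the project sought stronger binding though the title names inhibitors; some compounds called inactive have numbers as strong as hits; positive values seem to mean higher polarization but the record does not say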
# Target sequence (P41235 whole entry, looked up): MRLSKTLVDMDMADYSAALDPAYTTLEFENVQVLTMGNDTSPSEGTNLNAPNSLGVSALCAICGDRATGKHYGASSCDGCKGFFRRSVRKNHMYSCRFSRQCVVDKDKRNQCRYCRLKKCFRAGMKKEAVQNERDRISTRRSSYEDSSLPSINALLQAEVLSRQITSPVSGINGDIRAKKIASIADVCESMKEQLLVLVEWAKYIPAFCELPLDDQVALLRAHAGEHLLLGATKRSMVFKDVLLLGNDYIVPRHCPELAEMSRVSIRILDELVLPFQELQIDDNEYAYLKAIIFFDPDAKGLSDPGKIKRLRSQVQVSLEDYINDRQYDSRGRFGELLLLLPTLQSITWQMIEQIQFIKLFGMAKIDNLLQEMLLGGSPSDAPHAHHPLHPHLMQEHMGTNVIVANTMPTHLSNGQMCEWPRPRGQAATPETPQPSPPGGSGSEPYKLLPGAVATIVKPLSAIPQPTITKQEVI
# RanGTP-Impb inh: inhibitors of RanGTP-importin-beta interaction, primary screen, biochemical, FRET, CFP-Ran, YFP-importin-beta, homogeneous; AID 2216, 2009; cell-free CFP-Ran/YFP-importin-beta FRET ratio; inhibition, % (test concentration not listed); Ran GTPase (GTP-bound) - importin-beta complex; 300,000 tested, 1.1% active;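 active = most replicates above 15%; inconclusive = exactly half above 15%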;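 note: 0% = DMSO wells and 100% = Ran loaded with GDP instead of GTP; wells of about 40 µL received 100 nL stock; the first replicate is given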
# LANA-H2A inh: blockers of LANA interaction with H2A/H2B – biochemical, FP readout, HTS, primary screen; Protein LANA1 (Human herpesvirus 8 type P (isolate GK18)), Q9QR71; cell-free LANA-H2A/H2B peptide, fluorescence polarization; inhibition, % (no concentration beside the values); 320,000 tested, 0.6% active; in the data active = inhibition mostly above about 10%, no sharp cut-off; inactive = mostly below about 6.7%;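 note: stock transfer was 7.5 nL into about 10 µL; 0% = median of vehicle wells and 100% = median of positive control wells; one replicate is shown; the record names a cut of 25% in any replicate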
# Calb FLC: C. albicans growth inhibition with fluconazole, primary screen, CaCi-2 strain, Alamar Blue fluorescence. growth inhibition, % (concentration not given with the values). C. albicans CaCi-2 (fluconazole-resistant clinical isolate) + fluconazole, 48 h. 300,000 tested, 0.57% active;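 active = most replicates above 75%; inconclusive = exactly half above 75%; inactive = most below 75%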;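 note: all wells also contain fluconazole at 8 µg/ml as a sub-toxic cotreatment; 0% = median of DMSO wells and 100% = median of geldanamycin control wells; wells of about 8 µL received 7.5 nL stock; the first replicate is given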
# Vif TR-FRET: inhibitors of Vif binding to APOBEC3G peptide, primary screen, biochemical, TR-FRET, GST-Vif 1-94, biotin-A3G peptide, dose response retest (AID 1117319); Virion infectivity factor (Human immunodeficiency virus type 1 group M subtype B (isolate …; TR-FRET GST-Vif / biotin-A3G peptide binding; higher % means a stronger effect; test concentration not given here; strong numbers were not always called active; inhibition, %; hits with a dose series show IC50 in µM; 260,000 tested, 0.57% active;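 active = above the screen mean plus three standard deviations and confirmed in dose response; inconclusive = results disagree or hit not tested in dose response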;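 note: Vif residues 1-94 fused to GST binding biotinylated APOBEC3G peptide 110-148; 0% = full assay without inhibitor and 100% = GST in place of GST-Vif; retest series ran down from 100 µM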
# * marks the source's active call; other numbers are inactive results; ? = inconclusive; / = not tested or not shown.
Compound,Beta2AR agonist,ALR inh,HNF4A DNA FP,RanGTP-Impb inh,LANA-H2A inh,Calb FLC,Vif TR-FRET
CC(C)c1ccc2nc(N)sc2c1,-5,-1,1.9,0.7,5.9,8,3%
O=C1NN(c2ccccc2)C(=O)/C1=C\c1coc2ccc(O)cc2c1=O,29,99*,-6.7,-3.1,3.1,-2,19%
CSc1cccc(N2CC(C(=O)Nc3cccc(S(=O)(=O)N4CCCC4)c3)CC2=O)c1 (stereo not given),-1,-5,-1.3,-2.0,0.4,-11,-7%
COc1cc(/C=C/C(=O)OCC(=O)NC(=O)NC(C)C)cc(OC)c1OC,-1,4,2.3,2.0,3.2,?,7%
Cc1[nH]n(-c2ccccc2)c(=O)c1/C=N/N(C)c1ccccc1,0,82*,-4.3,5.5,-0.9,-31,5%
Cc1cc(C)c2c(N)c(S(=O)c3ccc(C(C)(C)C)cc3)sc2n1 (stereo not given),-11,-25,2.9,-0.1,0.1,3,-3%
O=C(Nc1cc(Cl)ccc1Cl)C1CC(=O)N(c2ccccc2)C1 (stereo not given),-5,-6,-0.8,0.8,1.1,-6,/
O=C(CCn1cccc1)Nc1nccs1,-2,/,1.8,3.6,-1.4,4,1%
COC(=O)CSc1nnc(-c2ccc3c(c2)OCO3)n1C,9,-9,1.4,-5.1,2.3,-5,-2%
O=C(C[C@H]1C/C=C\C[C@H](NC(=O)OCC2c3ccccc3-c3ccccc32)C(=O)OC[C@H]2CCCN2C1=O)NCCO,-8,-1,-2.5,/,1.3,/,/
CC1(C)CCC(=O)N2CC[C@H]3C[C@H](OC(=O)Nc4ccc5c(c4)OCO5)C[C@@H]1[C@H]32,0,1,-6.9,1.6,2.3,-1,/
O=C(NCc1ccccc1)C12CN(Cc3ccccc3)CC1C(c1ccc([N+](=O)[O-])cc1)=NO2 (stereo not given),-7,18,1.8,4.7,-5.2,1,6%
C[C@]12CC[C@H](O)CC1=CCC1C2CC[C@@]2(C)C1CCC21OCCO1 (stereo not given in full),-4,3,0.9,/,1.1,/,5%
Cc1ccc(N2CC(C(=O)OCc3ccccc3)CC2=O)cc1 (stereo not given),8,-4,3.3,-3.9,0.5,-12,-6%
CC(C)Cc1nc(SCC(=O)NCC2CCCO2)c2c(=O)n(C)c(=O)n(C)c2n1 (stereo not given),-7,-24,-0.6,-2.9,-5.0,-11,/
Cc1nc(-c2ccccc2)sc1C(N)=O,5,-4,-2.6,1.3,5.5,3,-9%
CC(C)C[C@@H](C(=O)NCc1ccco1)N1C(=O)N2CCc3c([nH]c4ccccc34)[C@@]2(C)C1=O,9,/,3.3,-2.2,-1.7,2,/
Cc1ccc(NC(=S)c2nc3ccccc3[nH]2)cc1,5,3,-2.2,5.5,-3.9,85*,2%
CC1CCc2cc(F)cc3c(O)c(C(=O)NCC4CCCO4)c(=O)n1c23 (stereo not given),-9,39,1.6,-4.5,-8.4,1,-18%
C=CCCC(=O)N1CCC(Oc2cccc(C(=O)NCc3ccccn3)c2)CC1,-4,-2,2.1,0.2,-2.6,-3,?
CC(C)N(Cc1nc(-c2ccccc2)no1)C(=O)C(Cl)(Cl)Cl,-4,3,1.2,2.1,2.4,-6,/
CCC(=O)N1N=C(c2ccc(C)cc2)CC1c1ccco1 (stereo not given),-3,-8,0.1,-2.8,-2.4,-7,2%
CC(C)c1ccc(/C=C/c2ccc(=O)n(C)n2)cc1,-1,30,1.7,?,2.0,28,/
OC(COc1ccc(Cl)cc1Cl)CN1CCc2ccccc2C1 (stereo not given),2,-12,5.3,8.1,-4.1,5,3%
Cc1cc(NC(=O)CSc2nnc(-c3cccc(F)c3)n2N)no1,-9,2,-3.5,/,14,/,/
c1ccc(CCNCCCOc2cccc3ccccc23)cc1,7,/,-1.7,-1.4,0.6,13,/
CC(=O)c1c(C)[nH]c(C(=O)COC(=O)c2cccs2)c1C,5,-8,-1.7,/,-1.1,/,6%
COc1cc(Cl)ccc1OCc1cc(C(=O)N(C)Cc2cccc3cnccc23)no1,0,-6,2.3,-1.1,-7.1,-4,12%
BrC(/C=C\c1ccccc1)=N/Nc1nc(N2CCOCC2)nc(N2CCOCC2)n1,-5,-5,5.8,/,-7.6,9,-3%
O=C(OCC#Cc1c(COC(=O)c2ccccc2)nnn1Cc1ccccc1)c1ccccc1,8,2,-1.2,-2.2,3.0,-1,/

# (listing goes on)
molecule,Beta2AR agonist,ALR inh,HNF4A DNA FP,RanGTP-Impb inh,LANA-H2A inh,Calb FLC,Vif TR-FRET
CC(C)c1onc(C(=O)N2CCCCC2)c1[N+](=O)[O-],-2,-10,-1.4,1.4,8.2,6,1%
CO/N=C1\CCn2c1c(C)c1ccccc12,22,-9,5.7,-0.1,2.5,0,-1%
O=C(CSC(=S)N1CCSCC1)c1ccccc1,11,/,0.1,3.2,/,-5,12%
COc1cccc(NC(=O)COC(=O)c2nc(Cl)ccc2Cl)c1,-5,-12,-6.3,0.6,0.4,-7,1%
COC(=O)c1cc(=O)c2cccc(OC)c2[nH]1,1,-4,0.7,0.2,-0.1,-1,-2%
CCCS(=O)(=O)c1c(S(=O)(=O)CCC)c2ccccn2c1C(=O)OC,19,-2,-1.4,-5.0,-10,-19,0%
C#CCN(C#N)c1nc(NCC)nc(NC(C)C)n1,1,9,4.0,-0.1,4.1,-2,-1%
CC(CC(C)C(=O)Nc1ccccc1C(C)(C)C)C(=O)O (stereo not given),3,/,5.6,1.7,6.0,-8,5%
COc1cc2c3c(c1OC)C1(C=CC(=O)C=C1)CC3N(C(=O)c1ccccc1)CC2 (stereo not given),0,4,0.1,-2.1,-1.6,-8,16%
Cc1ccnc(N2C(=O)C3C4CC(C(Br)C4Br)C3C2=O)c1 (stereo not given),-2,-8,3.7,3.3,13,2,-4%
COc1ccc(C2C(C(=O)O)CC(=O)N2c2ccc(OC)cc2)cc1 (stereo not given),-1,0,-1.2,-2.8,-3.0,-3,-2%
COC(=O)c1c(NC(=O)c2c(C)noc2C)sc2c1CCCCCC2,/,/,/,-1.6,/,27,-3%

# Remaining list, next part
molecule,Beta2AR agonist,ALR inh,HNF4A DNA FP,RanGTP-Impb inh,LANA-H2A inh,Calb FLC,Vif TR-FRET
CCN(CC)c1ccc(/C=N/NC(=O)c2ccc3c(c2)OCCO3)cc1,16,/,-0.9,-0.9,/,0,2%
Cc1cccc2c1NC(C)CC2C (stereo not given),5,-22,-0.6,1.5,-12,/,3%
c1cc(CNc2ccc(N3CCOCC3)cc2)ccn1,-3,99*,0.8,-1.3,-4.7,-2,?
CC(OC(=O)c1nsc(Cl)c1Cl)C(=O)NCCc1ccccc1 (stereo not given),2,-1,-1.3,1.2,-2.6,13,1%
O=C(CNC(=O)c1ccc(Br)o1)Nc1cccc(S(=O)(=O)N2CCCC2)c1,-11,-1,0.0,-1.0,-2.9,/,-8%
CSc1ccccc1NC(=O)C1CCN(S(C)(=O)=O)CC1,-3,/,-3.3,-3.6,-0.4,2,/
Cc1ccc(CN2CC(C(=O)N3CCN(S(=O)(=O)c4ccc(C)cc4C)CC3)CC2=O)cc1 (stereo not given),-4,/,4.2,/,-5.4,/,-2%
C/C(=N/NC(=O)c1cccs1)c1cccc(N)c1,4,/,-1.9,-3.6,-0.6,-2,?
CCCn1c(N)c(C(=O)CSc2nc(C3CC3)n(-c3ccccc3)n2)c(=O)[nH]c1=O,-4,-6,0.8,/,-1.7,/,/
NC(=O)c1c(NC(=O)Cc2ccccc2)sc2c1CCN(Cc1ccccc1)C2,4,/,1.1,134*,-1.2,5,/
CCCC(=O)NC(=S)Nc1ccccc1N1CCOCC1,4,-22,-1.9,1.1,0.5,15,-2%
O=C(/C=C/c1ccccc1Cl)NC1CCS(=O)(=O)C1 (stereo not given),2,-6,-2.8,1.2,-1.8,2,/

# 4 entries from above, reformatted.
NC(=O)c1c(NC(=O)Cc2ccccc2)sc2c1CCN(Cc1ccccc1)C2
  Beta2AR agonist = 4	ALR inh = /	HNF4A DNA FP = 1.1	RanGTP-Impb inh = 134*	LANA-H2A inh = -1.2	Calb FLC = 5	Vif TR-FRET = /
Cc1cccc2c1NC(C)CC2C (stereo not given)
  Beta2AR agonist = 5	ALR inh = -22	HNF4A DNA FP = -0.6	RanGTP-Impb inh = 1.5	LANA-H2A inh = -12	Calb FLC = /	Vif TR-FRET = 3%
Cc1ccc(CN2CC(C(=O)N3CCN(S(=O)(=O)c4ccc(C)cc4C)CC3)CC2=O)cc1 (stereo not given)
  Beta2AR agonist = -4	ALR inh = /	HNF4A DNA FP = 4.2	RanGTP-Impb inh = /	LANA-H2A inh = -5.4	Calb FLC = /	Vif TR-FRET = -2%
CCCn1c(N)c(C(=O)CSc2nc(C3CC3)n(-c3ccccc3)n2)c(=O)[nH]c1=O
  Beta2AR agonist = -4	ALR inh = -6	HNF4A DNA FP = 0.8	RanGTP-Impb inh = /	LANA-H2A inh = -1.7	Calb FLC = /	Vif TR-FRET = /

# Continued:
molecule,Beta2AR agonist,ALR inh,HNF4A DNA FP,RanGTP-Impb inh,LANA-H2A inh,Calb FLC,Vif TR-FRET
CCN(CC(=O)Nc1c(F)cccc1F)C(=O)C1CCN(C(=O)c2ccc(Cl)cc2)CC1,2,/,-4.8,-0.1,/,-2,-3%
O=C(Cn1nnc2c(sc3nc4c(c(-c5ccccc5)c32)CCC4)c1=O)c1ccccc1,-11,1,0.6,4.1,-2.7,-3,30%
Cc1cc(Cl)ccc1OCC(=O)NNC(=O)C1CSC2(C)CCC(=O)N12 (stereo not given),1,-1,1.9,1.8,-3.4,5,1%
COc1ccc(Oc2nc(-c3ccccc3)ncc2S(=O)(=O)c2ccccc2)cc1,-10,-9,1.5,-0.3,-2.3,7,-8%
COc1cc(-c2nc3ccc4ccccc4c3c3c2CCC3)ccc1O,25,96*,6.8,-0.5,4.6,-3,8%
CCOC(=O)N1CCC(NCCNC(=O)c2cccs2)CC1,-2,-1,-1.4,0.4,4.7,5,?
CCCC1C(=O)N(Cc2ccccc2)C(=O)CC1C (stereo not given),-10,/,-0.1,-3.5,-1.8,-2,-1%
Cc1ccc(CN(CC(=O)N/N=C/c2ccco2)S(=O)(=O)c2ccc(C)cc2)cc1,-8,-6,-2.4,-1.3,-2.9,-14,2%
